Screens (PubChem BioAssay)
ALR inh – blocks human ALR sulfhydryl oxidase activity; purified ALR, DTT oxidation, H2O2 HRP-luminol luminescence; inhibition, % (test concentration not listed); 290,000 compounds, 3.8% hits; AID 485317;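 active = mean and each replicate at 75% or more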;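 note: stock transfer was 7.5 nL into about 7.5 µL; 0% = neutral wells and 100% = wells with inactivated enzyme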
Ecoli growth – blocks Escherichia coli growth; OD600, 23 h; active compounds read low; OD600 absorbance (no concentration beside the values); 330,000 compounds, 0.21% hits;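 active = OD600 absorbance below the run mean of sample wells minus 3.6 SD, in any replicate, cut at about 0.56 in these data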;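 note: stock transfer was 300 nL into about 60 µL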
FGF22 binding – shifts melting point of recombinant human FGF22. 340,000 compounds, 1.5% hits. recombinant FGF22 thermal shift, SYPRO orange fluorescence; percent of sucrose octasulfate shift, DMSO zero. Q9HCT0. calls only at 9.99 µM;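 active = melting point raised past a set limit in the mean and every replicate; three in four hits are not shown here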
Target sequence (Q9HCT0 whole entry, looked up): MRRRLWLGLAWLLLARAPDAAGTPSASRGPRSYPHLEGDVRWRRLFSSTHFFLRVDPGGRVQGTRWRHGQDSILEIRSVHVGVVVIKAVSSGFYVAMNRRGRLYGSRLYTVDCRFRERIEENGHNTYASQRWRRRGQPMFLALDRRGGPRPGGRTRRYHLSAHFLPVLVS
Ecoli rRNA inh – selective bacterial rRNA inhibition in E. coli; 350,000 compounds, 1.6% hits; GFP signal change (wild-type ribosome), % (test concentration not listed); E. coli WT GFP vs humanized-ribosome RFP mutants, fluorescence, 24 h; active compounds read low; DMSO median 0, no signal -100;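 active = significant combined selectivity score with lowered wild-type GFP, culture density cut under 30%, mutant RFP and density less affected; inactive = any of these conditions unmet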; note: one replicate is shown; some compounds called inactive have numbers as strong as hits
UCH37 DUB inh – human UCH37 deubiquitinating enzyme inhibition. inhibition, % (concentration not given with the values). purified proteasome/UCH37, Ub-AMC cleavage fluorescence. 330,000 compounds, 0.33% hits;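 active = mean of two replicates above 20%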;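 note: 0% = compound-free wells with enzyme and 100% = wells lacking proteasome; stock transfer was 100 nL into about 20 µL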
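Reagent: Ub-AMC substrate; assay system: Proteasome-associated human UCH37 deubiquitinase; controls: no-proteasome and no-compound wells; read-out: % inhibition of Ub-AMC cleavage fluorescence; timing: 30 min preincubation with enzyme, 25 min cleavage at room temperature; signal: AMC fluorescence from Ub-AMC cleavage, excitation 355 nm, emission 460 nm; buffer or medium: Tris-HCl pH 7.4 plus ovalbumin, ATP-MgCl2, DTT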
B2AR ag – agonists of human beta-2 adrenergic receptor inducing internalization; P07550; Am2.2-beta2AR cells, FAP receptor internalization, flow cytometry; reference of the scale not given here; response, % (concentration not given with the values); 340,000 compounds, 0.43% hits;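 active = response above a set limit, near 3 SD of response in nonfluorescent compounds, cut at about 42% in these data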;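 note: stock transfer was 100 nL into about 11 µL; a reference agonist was the positive control; negative values mostly stem from fluorescent compounds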
Target sequence (P07550 whole entry, looked up): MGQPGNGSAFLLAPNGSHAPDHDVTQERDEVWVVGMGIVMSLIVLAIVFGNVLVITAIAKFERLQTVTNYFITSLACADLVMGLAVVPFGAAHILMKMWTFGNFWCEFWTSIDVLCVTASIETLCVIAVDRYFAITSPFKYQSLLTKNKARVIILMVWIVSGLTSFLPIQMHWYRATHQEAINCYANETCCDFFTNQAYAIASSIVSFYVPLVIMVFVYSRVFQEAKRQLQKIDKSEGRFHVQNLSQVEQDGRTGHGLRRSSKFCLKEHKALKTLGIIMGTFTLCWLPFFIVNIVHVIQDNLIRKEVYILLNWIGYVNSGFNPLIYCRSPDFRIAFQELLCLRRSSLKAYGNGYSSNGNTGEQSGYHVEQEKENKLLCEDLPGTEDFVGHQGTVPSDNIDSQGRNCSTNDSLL
HNF4A DNA FP – change in binding of human HNF4 alpha to DNA. AID 1224865. 360,000 compounds, 0.3% hits. P41235. activity change, % at 10 µM. HNF4a-FITC DNA binding, fluorescence polarization, 1 h; in the data active = activity change above about 30%, passing the limit was not always enough;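 note: controls were the assay level and a saturating level of protein; the project sought stronger binding though the title names inhibitors; some compounds called inactive have numbers as strong as hits; positive values seem to mean higher polarization but the record does not say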
Target sequence (P41235 whole entry, looked up): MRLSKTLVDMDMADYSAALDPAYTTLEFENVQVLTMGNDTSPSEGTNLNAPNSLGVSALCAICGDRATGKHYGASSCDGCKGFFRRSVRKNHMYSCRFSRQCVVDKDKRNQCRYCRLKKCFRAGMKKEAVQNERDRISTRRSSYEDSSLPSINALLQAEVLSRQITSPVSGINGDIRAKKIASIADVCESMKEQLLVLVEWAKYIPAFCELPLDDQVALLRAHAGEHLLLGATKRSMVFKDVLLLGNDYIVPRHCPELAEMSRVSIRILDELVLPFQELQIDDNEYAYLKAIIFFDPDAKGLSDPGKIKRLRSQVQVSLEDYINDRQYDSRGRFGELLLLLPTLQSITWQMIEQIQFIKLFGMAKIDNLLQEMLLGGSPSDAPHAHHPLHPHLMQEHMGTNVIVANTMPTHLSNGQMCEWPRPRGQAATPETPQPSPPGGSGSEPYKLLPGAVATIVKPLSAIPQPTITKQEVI
Ecoli rRNA inh OD600 – also measured in Ecoli rRNA inh; calls as there; OD600 change, %; measured here: OD600 growth;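 optical density of the mix in the first replicate; 0 = DMSO median and -100 = no signal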
Ecoli rRNA inh RFP – also measured in Ecoli rRNA inh; calls as there; RFP signal change, %; measured here: RFP humanized mutant strains;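 first replicate; 0 = DMSO median and -100 = no signal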
The depositor's hits bear a star; i = inactive; · = not tested or not shown; + = active, no number.

SMILES	ALR inh	Ecoli growth	FGF22 binding	Ecoli rRNA inh	Ecoli rRNA inh OD600	Ecoli rRNA inh RFP	UCH37 DUB inh	B2AR ag	HNF4A DNA FP
CCc1nnc(NC(=O)CSc2nnc(-c3ccoc3C)n2CC(C)C)s1	7	0.69	·	·	·	·	4.3	9	-2.3
CN(C)c1ccc(/C=N/NC(=O)c2ccco2)cc1	99*	·	i	5	10	0.7	·	6	-0.4
CC1CN(C(=O)c2cccc(NS(=O)(=O)c3ccc(Br)cc3)c2)CC(C)O1 (configuration not stated)	·	·	i	5	1	3.0	·	·	-2.2
Cc1ccc(-n2ncc3c(NNC(=O)c4ccco4)ncnc32)cc1Cl	1	0.7	i	11	11	0.0	3.0	6	2.2
COc1ccc(C(CNC(=O)c2cc(C)on2)N(C)C)cc1 (configuration not stated)	0	0.62	i	14	9	-2.8	1.3	6	4.4
Cc1c(C)c2ccc(OCC(=O)c3ccccc3)cc2oc1=O	-3	0.66	i	5	14	1.4	-8.8	8	-3.8
Cn1c(COc2ccccc2)nnc1SCC(=O)Nc1ccc2c(c1)OCO2	-5	0.7	·	2	8	0.4	0.4	-5	-2.5
COc1cccc(NC(=O)c2cc(Cl)nnc2Cl)c1	61	0.71	i	-5	-11	-0.1	-0.9	7	0.0
CC(=O)c1ccc(OCC(=O)c2cc(C)n(-c3ccc4c(c3)OCO4)c2C)cc1	-31	0.72	i	-11	-14	-3.6	2.9	-8	0.1
O=C1CN(C(=O)COC(=O)c2cccnc2Cl)c2ccccc2N1	-3	0.62	i	-3	3	0.1	2.9	1	5.0
CCOC(=O)c1c(NC(=O)Cn2nc(C(F)(F)F)cc2C)sc(C)c1C	-3	0.7	·	·	·	·	-1.1	3	6.1
O=C(O)c1ccc(NN=Cc2cc(=O)[nH]c(=O)[nH]2)cc1	·	·	i	9	13	0.6	·	-4	3.3
COC(=O)c1c(C(C)=O)c(C)n(C)c1C	-4	0.69	i	0	7	-2.0	3.9	6	-3.1
O=C(OCn1nnc2ccccc2c1=O)c1ccc(F)c(S(=O)(=O)N2CCOCC2)c1	·	·	i	0	-2	3.4	·	·	1.9
Cc1ccc(NC(=O)CN(C)C(C)C(=O)N2CC(C)CC(C)C2)cc1 (configuration not stated)	1	0.7	i	·	·	·	-3.9	-5	-6.7
CCCCNS(=O)(=O)c1ccc(NC(=O)Cc2ccccc2[N+](=O)[O-])cc1	-7	0.69	i	1	-13	-5.2	6.0	2	-0.7
CCCc1nc2ccccc2c(=O)n1/N=C/c1ccc(O)c(O)c1	99*	·	·	·	·	·	·	-4	-2.7
COc1ccc(CNC(=O)CCNC(=O)N2CC(=O)Nc3ccccc32)cc1	·	·	i	0	2	0.8	·	·	1.7
Cc1cc(C)n(-c2ccc(C(=O)Oc3ccc4c(c3)OCO4)cc2)n1	-16	0.69	·	·	·	·	4.0	-8	2.6
CCOc1ccc(NC(=O)CN(C)C(=O)CC(NC(=O)c2ccccc2)c2ccccc2)cc1OCC (configuration not stated)	-3	0.64	i	0	2	2.2	2.2	-5	3.1
Cc1nn(CC(=O)NCCCN2CCCC2=O)c(C)c1[N+](=O)[O-]	0	0.65	·	14	10	-0.9	7.0	·	-2.0
Cn1c(C(=O)NCCc2c[nH]c3ccccc23)cc2sccc21	-3	0.71	+	-3	-5	2.5	7.0	-6	5.5
O=C(CN1C(=O)c2ccccc2S1(=O)=O)N1CCN(c2ccccc2)CC1	27	0.74	i	·	·	·	0.2	3	-1.0
Cc1ccccc1NC(=S)Nc1cccc([N+](=O)[O-])c1	-20	0.7	·	15	13	-1.8	1.1	7	-1.4
O=C(CNC(=O)c1cccc(Cl)c1)N/N=C/c1cccnc1	3	·	i	4	-3	-3.8	·	-3	-3.5
CCN(N=O)c1ccc(C=C2C=Cc3ccccc32)cc1	·	·	i	-3	-13	-1.2	·	1	4.3
COc1ccc(CCNC(=O)C2CCCN(c3nc(C)cc(C)n3)C2)cc1 (configuration not stated)	1	0.68	i	2	2	0.3	-3.7	9	1.6
Cc1sc(NC(=O)c2cccs2)nc1-c1ccccc1	2	0.71	·	·	·	·	0.0	3	0.2
Nn1c(SCC(=O)Nc2ccccc2F)nnc1C1CCCCC1	-5	0.66	i	-1	10	-0.4	1.9	4	3.0
COc1ccccc1N1CCN(C(=O)CCCn2c(=S)[nH]c3ccccc3c2=O)CC1	·	·	i	18	18	-1.0	·	·	4.2
Cc1ccc(S(=O)(=O)N(CCO)Cc2cc3ccc(C)c(C)c3[nH]c2=O)cc1	-9	0.72	·	·	·	·	-2.6	-3	-0.6
CCn1ncc(Br)c1C(=O)Nc1ccc(F)c([N+](=O)[O-])c1	0	0.72	i	-6	-2	-6.4	5.3	20	3.9
CC(Cc1ccccc1)C(=O)N(C)Cc1ccccc1 (configuration not stated)	-7	0.66	i	-3	5	-9.5	2.5	1	-1.0
CCCCOc1ccc(S(=O)(=O)Nc2ccc(NC(C)=O)cc2)cc1	-29	0.71	·	·	·	·	6.2	-18	2.8
O=C(Nc1ccc(Br)cn1)c1ccc([N+](=O)[O-])o1	-35	0.52	i	-4	-4	-3.4	0.4	4	5.1
CCCCCCN1C(=O)CC(NC(=O)OCC2c3ccccc3-c3ccccc32)C/C=C\C1C(C)C (configuration not stated)	·	0.74	i	0	-6	4.8	0.6	-1	-0.8
CCOC(=O)C1(Cc2cccc(OC)c2)CCN(Cc2csc(C(C)=O)c2)CC1	-32	0.69	i	-8	-11	-1.9	3.4	-14	0.5
CC(C)OCCCN(C)C1CCN(S(=O)(=O)c2ccc(-c3cc(C(F)(F)F)no3)s2)CC1	3	0.67	i	-6	9	-5.8	-2.9	-8	-1.5
COc1ccc(NC(=O)c2ccc(S(=O)(=O)C(F)F)cc2)c(OC)c1	-3	0.64	·	-6	-18	-2.6	5.9	7	-0.1
Cc1ccc(CNC(=O)CCc2ccc(S(=O)(=O)NCC(C)C)cc2)cc1	1	0.71	i	0	1	-1.4	-0.7	-3	-1.4
CCN(CC)S(=O)(=O)c1ccc(-c2nnc(SCC(=O)Nc3nnc(C)s3)n2CC)cc1	-21	0.7	·	·	·	·	1.2	4	3.1
CC(=O)Nc1ccc(OC(=O)c2cccnc2)cc1	·	0.7	·	·	·	·	5.6	2	-1.7
CCCCn1nc(C(=O)Nc2ccc3c(c2)OCO3)c2ccccc2c1=O	2	0.7	i	-5	-2	6.7	1.0	11	-1.9
C/C(=N\NC(=O)c1ccc(CN(C)S(=O)(=O)c2ccc(C)cc2)cc1)c1ccc(OC(F)F)cc1	-1	·	i	-3	13	-6.3	·	5	-2.5
Cc1ccc(NC(=O)c2cccnc2)cc1C	-4	0.69	i	12	14	0.7	-1.6	-7	1.3
COc1ccc(NC(=O)Nc2ccc3nc([C@@H]4O[C@H](CO)[C@@H](O)[C@H](O)[C@H]4O)[nH]c3c2)cc1OC1CCCC1	·	·	i	5	2	-7.8	·	·	2.6
Cc1cc(C)nc(SCC(=O)Nc2ncc(C(F)(F)F)cc2Cl)n1	-1	0.59	·	·	·	·	-5.3	-10	-0.3
Cn1c(SCC(=O)OCc2ccccc2)nnc1-c1ccco1	19	0.71	·	·	·	·	5.9	-10	-0.4
CCN1CCc2c(sc(NC(=O)c3cc4ccccc4cc3OC)c2C(N)=O)C1	-12	0.72	i	0	3	-2.5	-82	29	37*
CCCCNC(=O)CCCCCNS(=O)(=O)c1ccc(Br)cc1	1	0.69	i	-9	-7	1.0	4.4	5	6.2
O=C(NC1CCCC1)C1c2ccccc2C(=O)N1C1CCCCC1 (configuration not stated)	-5	0.73	·	·	·	·	2.9	9	-0.3
CCC(C)NC(=O)Cn1nc(C(F)(F)F)c2c1CCC2 (configuration not stated)	13	0.7	i	1	-1	0.1	-7.6	-2	-3.6
Cc1sc2c(c1C)c(=O)n(-c1ccc(Cl)cc1)c(=O)n2Cc1cc(=O)n2ccccc2n1	-5	0.71	·	·	·	·	-40	15	6.4
NC(=O)c1ccc(NC(=O)CNc2cc(S(=O)(=O)N3CCOCC3)ccc2N2CCCC2)cc1	·	0.67	i	-1	-1	-0.4	3.9	6	2.7
COc1ccc(N2CCN(c3ccc(NC(=O)NN)cc3)CC2)cc1	43	0.68	i	6	5	-2.7	-0.6	11	-0.1
c1ccc(NC2=NCCN2CCC2CCCC2)cc1	2	0.67	i	1	5	-1.9	1.9	-2	1.1
COc1ccc(OC)c(NP2(=O)OCC(C)([N+](=O)[O-])CO2)c1 (configuration not stated)	·	·	i	-8	5	-2.0	·	-5	-3.4
CC(C)C(C(=O)NCc1ccccc1)N(CC1CCCO1)C(=O)CNS(=O)(=O)c1ccccc1 (configuration not stated)	-5	0.66	i	6	13	2.5	3.9	5	-1.3
CC(C)NC(=O)CC1(C(=O)NCc2ccc(Cl)cc2)CCCC1	-15	0.68	i	6	6	1.3	1.3	-1	2.8
Cc1ccccc1OCCNC(=O)c1ccccc1Sc1ccccc1C#N	·	0.74	·	·	·	·	2.3	5	2.2

Shown in markdown: ten of the compounds above
| Compound | ALR inh | Ecoli growth | FGF22 binding | Ecoli rRNA inh | Ecoli rRNA inh OD600 | Ecoli rRNA inh RFP | UCH37 DUB inh | B2AR ag | HNF4A DNA FP |
| --- | --- | --- | --- | --- | --- | --- | --- | --- | --- |
| O=C(NC1CCCC1)C1c2ccccc2C(=O)N1C1CCCCC1 (configuration not stated) | -5 | 0.73 | · | · | · | · | 2.9 | 9 | -0.3 |
| CCC(C)NC(=O)Cn1nc(C(F)(F)F)c2c1CCC2 (configuration not stated) | 13 | 0.7 | i | 1 | -1 | 0.1 | -7.6 | -2 | -3.6 |
| Cc1sc2c(c1C)c(=O)n(-c1ccc(Cl)cc1)c(=O)n2Cc1cc(=O)n2ccccc2n1 | -5 | 0.71 | · | · | · | · | -40 | 15 | 6.4 |
| NC(=O)c1ccc(NC(=O)CNc2cc(S(=O)(=O)N3CCOCC3)ccc2N2CCCC2)cc1 | · | 0.67 | i | -1 | -1 | -0.4 | 3.9 | 6 | 2.7 |
| COc1ccc(N2CCN(c3ccc(NC(=O)NN)cc3)CC2)cc1 | 43 | 0.68 | i | 6 | 5 | -2.7 | -0.6 | 11 | -0.1 |
| c1ccc(NC2=NCCN2CCC2CCCC2)cc1 | 2 | 0.67 | i | 1 | 5 | -1.9 | 1.9 | -2 | 1.1 |
| COc1ccc(OC)c(NP2(=O)OCC(C)([N+](=O)[O-])CO2)c1 (configuration not stated) | · | · | i | -8 | 5 | -2.0 | · | -5 | -3.4 |
| CC(C)C(C(=O)NCc1ccccc1)N(CC1CCCO1)C(=O)CNS(=O)(=O)c1ccccc1 (configuration not stated) | -5 | 0.66 | i | 6 | 13 | 2.5 | 3.9 | 5 | -1.3 |
| CC(C)NC(=O)CC1(C(=O)NCc2ccc(Cl)cc2)CCCC1 | -15 | 0.68 | i | 6 | 6 | 1.3 | 1.3 | -1 | 2.8 |
| Cc1ccccc1OCCNC(=O)c1ccccc1Sc1ccccc1C#N | · | 0.74 | · | · | · | · | 2.3 | 5 | 2.2 |

Later entries:
SMILES	ALR inh	Ecoli growth	FGF22 binding	Ecoli rRNA inh	Ecoli rRNA inh OD600	Ecoli rRNA inh RFP	UCH37 DUB inh	B2AR ag	HNF4A DNA FP
O=C(CSc1nnc(SCC(=O)c2ccco2)s1)c1ccco1	·	0.7	·	·	·	·	6.2	-2	-8.2
Cc1c(C(N)=O)sc2ncn(CC(=O)N3CCC(C)CC3)c(=O)c12	-15	0.67	·	·	·	·	2.8	10	-2.6
COC(=O)c1ccccc1NC(=O)C1COc2ccccc2O1 (configuration not stated)	-10	0.69	·	·	·	·	1.5	6	-1.6
COc1ccc(-c2c[nH]c(=O)[nH]c2=O)cc1OC	-1	0.67	i	10	8	0.6	3.7	10	-3.8
Cc1nnc(SC(C)C(=O)NC2CCCCC2C)s1 (configuration not stated)	·	0.7	i	4	3	-1.0	1.9	-5	4.5

The list is partial, so the mix of outcomes need not match the whole.
